NPYLR7 agonist: agonists of mosquito NPYLR7 receptor, primary screen, cell-based, Aedes aegypti, calcium fluorescence, mosquito biting behavior | Aedes aegypti neuropeptide Y-like receptor 7 (NPYLR7) | HEK293T NPYLR7/Galpha15, GCaMP6s calcium fluorescence | activation, % at 10 µM | actives 0.15% (n = 270,000); in the data active = activation above about 40%;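 also: 0% = vehicle and 100% = reference agonist at the receptor; some compounds past the cut are filed as inactive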
NPYLR7 agonist max-min: second read-out of NPYLR7 agonist, no call of its own (marks repeat the call); activation, %; measured here: Max-Min RFU normalised activation; some inactives read as strong as hits;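 span of the calcium signal over five minutes; 0% = vehicle and 100% = native peptide agonist; compound fluorescence can raise it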
Starred values were filed as active, the others as inactive; & = joins results of further samples.

compound	NPYLR7 agonist	NPYLR7 agonist max-min
Nc1c(S(=O)(=O)O)cc(Nc2ccc(Nc3nc(Cl)nc(Nc4ccc(S(=O)(=O)O)cc4)n3)c(S(=O)(=O)O)c2)c2c1C(=O)c1ccccc1C2=O	0	-6
CN(C)C(=O)CN1CCN(CCCCCOc2ccc(C(=O)NCc3ccccc3)cc2)CC1	2	0
CCC(C)C(NC(=O)c1ccc(OC)cc1OC)C(=O)Nc1nnc(-c2ccc3c(c2)OCO3)s1 (centres undefined)	3	25
CC1CCc2c(sc3nc(CSC4=NCCN4)[nH]c(=O)c23)C1 (centres undefined)	9	1
CO[C@H]1CN(C(C)C)C[C@@H]1Nc1nc(-c2ccccc2)nc2c1CCNC2	-1	-6
COc1ccccc1-c1nnc(NC(=O)CSc2nnc(NC(=O)C3CC3)s2)s1	3	3
O=C(CC1NC(=O)c2ccccc21)NCCc1nc2c(s1)CCC2 (centres undefined)	8	6
CC(=O)CSc1ncnc2sc3c(c12)CCC(C)C3 (centres undefined)	7	4
Cn1nc(CN2CCC3(CC2)CNC(=O)C3)c2c(Cl)cccc21	3	15
CCCc1nc(C(=O)N2CC(c3ccncc3)C2)cs1	-2	-3
O=C1NC(=O)C2C1C(c1ccccc1)N1C3C(=O)NC(=O)C3C(c3ccccc3)N21 (centres undefined)	3	2
Cc1cc(C(=O)N2CCCC(CCc3ccc(F)cc3)C2)cc2sc(N)nc12 (centres undefined)	0	-4
O=C(Nc1ccc2c(c1)CN(C(=O)CCOc1ccccc1)CC2)c1ccccn1	6&-3	5&-4
Cc1cc(CNC(=O)c2ocnc2C)c2[nH]c(-c3ccccc3)c(C)c2c1	3	-2
CCN(CC)c1cc(C)nc(Nc2ccc(NS(=O)(=O)c3cc(C(C)C)ccc3C)cc2)n1	7	2
CCN1CCCC1CNC(=O)c1cc(C)c(C)c(S(N)(=O)=O)c1 (centres undefined)	4	-5
CCC(C)(C)NC(=O)c1ccc(=O)n(-c2ccc(C)c(Cl)c2)n1	11&2	6&0
Cc1ccc2sc(NCCN(C)C)nc2c1C	3	0
CCOc1cc(/C=C2\SC(=S)N(NC(=O)c3ccccc3)C2=O)ccc1O	0	-7
COCCNC(=O)Cn1nc2c(c1NC(=O)/C=C\c1ccc3c(c1)OCO3)CSC2	-3	3
O=C(NCC1CCC1)N1CCCN(C(=O)c2cccs2)CC1	-21	-24
COc1ccccc1/C=C/CN1CCC(C(=O)Nc2ccc(-n3nc(C)cc3C)cc2)CC1	8	2
Cc1nc2nc(-c3cccc(O)c3)cc(C(=O)O)c2[nH]1	-1	-2
Cc1ccnc(NCCNC(=O)c2ccc3nc(C)[nH]c3c2)c1	2	1
Nc1nonc1C(=O)N/N=C\c1cn[nH]c1-c1ccccc1	-10	-16

By substructure: those above containing a Cl atom (three)
compound	NPYLR7 agonist	NPYLR7 agonist max-min
Nc1c(S(=O)(=O)O)cc(Nc2ccc(Nc3nc(Cl)nc(Nc4ccc(S(=O)(=O)O)cc4)n3)c(S(=O)(=O)O)c2)c2c1C(=O)c1ccccc1C2=O	0	-6
Cn1nc(CN2CCC3(CC2)CNC(=O)C3)c2c(Cl)cccc21	3	15
CCC(C)(C)NC(=O)c1ccc(=O)n(-c2ccc(C)c(Cl)c2)n1	11&2	6&0

The results go on:
compound	NPYLR7 agonist	NPYLR7 agonist max-min
COc1cccc(CC2CN(C(=O)Cc3c(C)nc(N)nc3C)CCO2)c1 (centres undefined)	12	14
COCCCN(CC(=O)N1CCc2sccc2C1COc1cccc(OC)c1)C(=O)Cc1ccccc1 (centres undefined)	-3	4
O=C(O)c1ccc(N2C(=O)CC(N3CCOCC3)C2=O)cc1 (centres undefined)	4	0
Cc1cc(CS(=O)(=O)NCC2(c3ccc(F)cc3)CC2)on1	-1	-2
O=C(CSc1nnc(-c2c[nH]c3ccccc23)o1)NCc1ccco1	3	-2
CC(=O)Nc1cccc(N=Cc2cc(Br)cc(Cl)c2O)c1	10	10
CCN1C(=O)c2cccc3c(NC(=O)C4CCCCN4S(=O)(=O)c4cccs4)ccc1c23 (centres undefined)	7	5
O=C(O)CSc1nnc(Cc2c[nH]c3ccccc23)n1-c1ccccc1F	4	3
CN(C)C1CCN(c2ccc(NC(=O)CC3C=CCC3)cc2F)CC1 (centres undefined)	11	6
CC(C)c1csc(CN2CCC(C(=O)Nc3cccc(-c4ccco4)c3)CC2)n1	7	1
COc1cc2c(c(OC)c1)C(CCc1ccccc1)CC(=O)N2 (centres undefined)	21	17
CCOc1ccc(N2CCCn3c2nc2c3c(=O)n(CC)c(=O)n2C)cc1	-3	-8
O=C(CSc1ccc(-c2ccccn2)nn1)N1CCN(c2ccccc2)CC1	2	-7
Cc1ccc(NS(=O)(=O)c2c(C)noc2C)cc1F	17	8
Cc1nc(C)c(C(=O)OCc2cc(-c3ccc4c(c3)CC(C)O4)on2)s1 (centres undefined)	1	-1
O=C(Nc1oc2ccccc2c(=O)c1CN1CCOCC1)N1CCCCC1	-3	-4
Cc1cccn2c(=O)c(C(=O)NC3CCCC3)c(O)nc12	-3	5
C/C=C/C(=O)N1CCC(n2c(=O)oc3ccc(C(=O)OC)cc32)CC1	-1	-2
C/C(=N/N=C1/CCc2ccccc21)c1nnn(-c2nonc2N)c1C	7	2
COCCCN(Cc1c(-c2ccc(F)cc2)noc1N1CCN(C)CC1)C(=O)c1ccc(Cl)cc1	13	13
COCCCN(CC(=O)N(Cc1cccn1Cc1ccccc1)C(C)C)C(=O)CCc1ccccc1	12	8
O=C(Cn1nc2c(c1NC(=O)c1ccccc1F)CSC2)NCC1CCCO1 (centres undefined)	-5	-2
C=CCn1c(-c2ccc(Cl)cc2)c(-c2ccc(C)cc2)c(O)c(O)c1=O	-3	-4
CC1c2ccsc2CCN1C(=O)CCCNC(=O)c1ccc(F)cc1F (centres undefined)	1	-2
CC(C)CNC(=O)c1csc(CN(CC(C)C)C(=O)Nc2ccc(Br)cc2)n1	12	13

Some values from the list:
Entry for Cc1cc(CS(=O)(=O)NCC2(c3ccc(F)cc3)CC2)on1 under NPYLR7 agonist: -1
Entry for COCCCN(Cc1c(-c2ccc(F)cc2)noc1N1CCN(C)CC1)C(=O)c1ccc(Cl)cc1 under NPYLR7 agonist max-min: 13

Other results follow:
compound	NPYLR7 agonist	NPYLR7 agonist max-min
O=P1(Nc2ccc(F)cc2)C=C(c2ccccc2)SC(c2ccccc2)=C1	0	-3
Nc1ccc(CC(N)c2csc(Nc3cnccn3)n2)cc1 (centres undefined)	1	0
Cc1ccc(S(=O)(=O)Nc2cccc(-c3ccc4nnc(C)n4n3)c2)cc1	-12	-10
COCCCN(Cc1ccc(OC)c(OC)c1)Cc1ccc(C(=O)OC)o1	0	10
COc1ccc(NC(=O)c2ccc3c(c2)NC(=O)C(C)S3)cc1 (centres undefined)	0	-2
CC(=O)c1cc(CN2CCCC(CO)(Cc3cccc(Cl)c3)C2)cs1 (centres undefined)	9	8
CN(C(=O)CC1=CCCCC1)C1CCCN(C2Cc3ccccc3C2)C1 (centres undefined)	-3	-3
O=C(Nc1ccccc1)c1ccc2nc(NC(=O)C3CCCCC3)sc2c1	9	5
CCn1c(C(C)NC)nc2cc(Cl)ccc2c1=O (centres undefined)	11	16
O=C(CC(c1ccccc1)c1ccc(F)cc1)NCc1ncn[nH]1 (centres undefined)	21	8
CN1CCN(c2nc(-c3cccs3)cc(C(F)(F)F)n2)CC1	-4	-5
COc1cc(C)c(CSCc2ccc(C#N)cc2)cc1OC	6	5
N=C(N)SC12CC3CC(CC(C3)C1)C2	-6	-11
O=C(c1ccc(Br)o1)N1CCN(CC=Cc2ccccc2)CC1	-3	-7
O=C(CSC1=NS(=O)(=O)c2ccccc2N1)N1CCOCC1	13	9
COc1ccccc1-c1coc2c(CN3CC4CC(C3)c3cccc(=O)n3C4)c(O)ccc2c1=O (centres undefined)	9	11
Cc1[nH]n(-c2ccccc2)c(=O)c1C1=C(N2CCC(C)CC2)C(=O)N(Cc2ccco2)C1=O	23	34
CC(C)c1nccn1CCCNC(=O)c1ccc(N2C[C@H]3CNC[C@H]3C2)nc1	9	6
O=C(O)C1CC(=O)N(Cc2csc(Cc3ccccc3)n2)C1 (centres undefined)	12	3
COc1ccc(CCN(Cc2ccc(C)o2)C(=O)CN(CC(C)C)C(=O)Nc2cccc(Cl)c2)cc1OC	-12	-24
Cc1c(Br)c(C(=O)NC2C3CC4CC(C3)CC2C4)nn1C (centres undefined)	12	10
CN(C)C(=O)N1CCC[C@@H]1C(=O)NCCCNC(=O)c1ccccc1	13	18
CC(C)C(C)N(Cc1cc(NC(=O)C2CCCC2)ccc1N(C)C)S(=O)(=O)c1cccc(Cl)c1 (centres undefined)	10	10
CC(Oc1ccccc1)C(=O)NN=Cc1ccccc1O (centres undefined)	-1	-4
COc1ccccc1CN(C)[C@H]1[C@H](O)C[C@@H]2CC(C)(C)OC[C@]21O	1	10

Looked up by compound from above:
compound	NPYLR7 agonist	NPYLR7 agonist max-min
Nc1ccc(CC(N)c2csc(Nc3cnccn3)n2)cc1 (centres undefined)	1	0
CCn1c(C(C)NC)nc2cc(Cl)ccc2c1=O (centres undefined)	11	16
CC(=O)c1cc(CN2CCCC(CO)(Cc3cccc(Cl)c3)C2)cs1 (centres undefined)	9	8
Cc1c(Br)c(C(=O)NC2C3CC4CC(C3)CC2C4)nn1C (centres undefined)	12	10
O=C(c1ccc(Br)o1)N1CCN(CC=Cc2ccccc2)CC1	-3	-7
CN1CCN(c2nc(-c3cccs3)cc(C(F)(F)F)n2)CC1	-4	-5

Further records.
compound	NPYLR7 agonist	NPYLR7 agonist max-min
Cc1cccc(-c2cccc(NC(=O)C3CCCN(C(=O)c4cscn4)C3)c2)c1 (centres undefined)	14	1
Cc1cc2nn(-c3ccc(C(C)C)cc3)nc2cc1N	1	6
CC(C)(C)c1cc(CN2CCC(N3CCSCC3)CC2)[nH]n1	6	4
CCC(CC)C(=O)Nc1cccc(-c2cccc(-c3ccc(F)cc3)n2)c1	-3	-5
NS(=O)(=O)Cc1noc2ccccc12	17&-17&-3&1	0&-28&-6&-18
CCOC(=O)c1cc(-c2cccc(NC(=O)c3cc(F)cc(F)c3)c2)n(-c2cccc(C)c2)n1	27	14
O=C(c1cc(C2CC2)on1)N1CCN(c2ccccc2O)CC1	-3	-5
CC(Sc1nnc(N)s1)c1nnc(-c2cccs2)o1 (centres undefined)	-1	-2
O=C(NC1=NCCS1)c1cccc(OCc2cn3ccccc3n2)c1	-3	-3
Cc1ccccc1-c1nnc2ccc(-c3ccc(C(=O)N(C)C)cc3)cn12	-11	-11
COC(=O)c1ccc(NC(=O)c2nnn(Cc3ccccc3)c2N)cc1	0	5
N#Cc1c(CN2C(=O)NC3(CCSC3)C2=O)cn2ccccc12 (centres undefined)	0	11
COc1ccc(-c2ccccc2NC(=O)C2CCCN(Cc3ccnc4ccccc34)C2)cc1 (centres undefined)	12	0
COc1ccc2c(c1)-c1cc(Cl)ccc1S(=O)(=O)N2	2	2
CC(C)(C)c1ccc2oc(CN3CC(=O)N4CC[C@@H](O)C[C@H]4C3=O)nc2c1	13	3
Cc1ccccc1OC(=O)c1ccc2c(c1O)C(=O)c1ccccc1C2=O	4	9
COc1ccc2c(c1)SC(c1ccc(OC)c(C)c1)CCN2Cc1cnc(C)[nH]1 (centres undefined)	11	4
O=C1CCc2cc(NC(=O)c3ccc(Cn4ccnc4)cc3)ccc2N1	4	1
CC(C)COCCCNC(=O)Nc1ccc(C2CC2)nn1	3	70
CCCCN=C1SCC(c2[nH]c(C)c(C(=O)OCC)c2C)=NN1C	5	3
CCOCCn1c(SCCCc2ccccc2)nc2c1c(=O)[nH]c(=O)n2C	-18	-19
Cc1c(C)n2c3c(=O)n(CCN4CCOCC4)c(=O)n(C)c3nc2n1-c1ccccc1Cl	-2	0
Cc1ccc(S(=O)(=O)N2CCN(c3cccc(C)c3C)CC2)cc1	2	-1
Cc1cccc(C2(CNC(=O)C3CC3c3cccnc3)CCCCC2)c1 (centres undefined)	2	2
CCONC(=O)c1nn(-c2ccccc2F)cc1O	2	0
CCC(C(=O)Oc1coc(CSc2nc(C)cc(C)n2)cc1=O)c1ccccc1 (centres undefined)	-8	-9
CC(NC(=O)c1cc(NC(=O)NCc2ccccc2)ccc1N1CCCC1)c1ccccc1 (centres undefined)	-9	-6
COc1ccc(C2C(C(=O)OC(C)C)=C(C)N=c3sc(=Cc4ccco4)c(=O)n32)cc1 (centres undefined)	-6	-14
Cc1nc2sc3c(c2c(=O)n1N=Cc1ccccc1O)CCCC3	-4	-4
CN(CC(=O)Nc1cnccn1)Cc1csc(-c2ccccc2)n1	1	-5
CSc1nc(SCC(=O)NCC2CCCO2)c2sc3c(c2n1)COC(C)(C)C3 (centres undefined)	-10	-21
C/C(=N\NC(=O)CSc1nnc(-c2ccccc2)n1-c1ccccc1)c1ccc(Cl)cc1	-9	-14
CC1(C)CC(C2N3CC4(C)CN2CC(C)(C3)C4=O)CCO1 (centres undefined)	-4	-3
COC(=O)c1sccc1NC(=O)Cc1ccc(OC)cc1	1	3

A portion of the library. The share of hits here may be higher or lower than overall.
